Assay outcomes: PubChem BioAssay, ICCB-Longwood Screening Facility, Harvard Medical School
S aureus helic: blocks Staphylococcus aureus DNA helicase | hit rate 0.05% among 120,000 | AID 485395 | inhibition, %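 (tested at about 80 µM)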 | purified S. aureus helicase, fluorescence unwinding assay; about half of the hits fall short of the stated cut;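 active = both duplicates at 50% or more, or one of them with a favoured structure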;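 also: 0% = mean of negative control wells and 100% = mean of positive control wells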
MgrA DNA FP: S. aureus MgrA-DNA binding modulation. fluorescence polarization. inhibition, %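 (about 10 µg/mL by stock and volumes)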. hit rate 0.13% among 84,000. AID 602314;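 active = above 50% in either of two replicates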;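 also: 0% = protein plus DNA without compound and 100% = DNA alone without protein; higher means less MgrA bound to DNA so lower polarization; one replicate is shown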
Starred values were filed as active, the others as inactive; / = no result given; & = joins results of further samples. These rows are one share of the data. The share of hits here may be higher or lower than overall.

SMILES | S aureus helic | MgrA DNA FP
CCOc1cccc(S(=O)(=O)N=C2C=C(C(C)(C)C)C(=O)C(C(C)(C)C)=C2)c1 | 24 | 1.5
c1ccc(CCSc2nnc3sc4ccccc4n23)cc1 | 9 | -0.6
O=C(NC(=S)N1CCOCC1)c1cn(-c2ccccc2)nc1-c1cccnc1 | 9 | /
Cc1nnc(SCC(=O)Nc2ccc(Cl)c(Cl)c2)c2ccccc12 | / | -5.1
COc1cc(NC(=O)COc2cc(C)ccc2C)c(C(=O)O)cc1OC | -4 | -1.0
Fc1ccccc1-c1nnc(-c2ccc(OC(F)(F)F)cc2)o1 | / | 0.7
Cc1c(C(=O)OCC(=O)c2ccc[nH]2)sc2nc3n(c(=O)c12)CCC3 | -5 | /
CCN(CC)S(=O)(=O)c1cccc(C(=O)N(Cc2cccs2)CC2CCCO2)c1 (stereo unspecified) | -8 | /
Cc1cccc(-n2c(SCc3c(C)noc3C)nc3ccccc3c2=O)c1 | -13 | /
O=C(Nc1ccc(Br)cc1)c1cccs1 | 18 | /
CC1(C)SC(c2ccc(C3NC(C(=O)O)C(C)(C)S3)cc2)NC1C(=O)O (stereo unspecified) | 18 | /
CC1CC1C(=O)OCC(=O)Nc1ccc(F)cc1 (stereo unspecified) | 10 | -1.2
c1cc2c3c(cccc3c1)NC(c1ccc3c(c1)OCO3)N2 | / | -0.1
CC(C)CC(NC(=O)C1CCC(C)CC1)C(=O)NCc1ccccn1 (stereo unspecified) | 14 | /
O=C(Nc1nccs1)c1ccc(-c2ccc(Cl)cc2)o1 | 4 | 1.4
CC1CCC(C(C)C)C(OC(=O)C[n+]2ccsc2N)C1 (stereo unspecified) | -7 | -3.5
N#CC1=C(SCC(=O)NCc2ccccc2)NC(=O)CC1c1ccccc1F (stereo unspecified) | 20 | /
O=c1c2cc(-c3ccccc3)sc2nc2c3ccccc3cnn12 | 3 | /
O=C(c1ccc2ccccc2n1)N1CCCCC1 | 33 | 2.5
CCN(CC)c1ccc(/C=N/N2C(=O)c3ccccc3C2=O)c(O)c1 | -12 | /
COc1ccc(C2CC(c3cc(Cl)ccc3O)=NN2)cc1 (stereo unspecified) | 6 | /
O=C(NC1CCCN(c2nc3ccccc3s2)C1)N1CC=CCC1 (stereo unspecified) | 15 | /
O=C(O)CSCCS(=O)(=O)c1ccc(Cl)cc1 | / | -3.7
O=C(Cn1nnc(-c2ccncc2)n1)N(C1CCCCC1)C1CCCCC1 | -1 | 18
CNc1sc(C(=O)c2ccc(Cl)cc2)c(N)c1C(N)=O | 6 | /
COc1ccc(C(=O)N(O)c2ccccc2)cc1 | 2 | /
N#Cc1ccsc1NC(=O)c1ccncc1 | 10 | 3.6
NNC(=S)Nc1cccc(Cl)c1 | / | 2.7
CCOC(=O)N(c1ccccc1)c1ccccc1 | / | 1.1
S=c1[nH]nc(Cn2cncn2)o1 | 19 | /
O=C(O)c1ccccc1CSc1nc2ccccc2[nH]1 | -9 | /
CCN(CC)CCNc1ccc(CO)c2sc3ccccc3c(=O)c12 | / | -0.7&-2.0
Cc1ccccc1-c1nnc(NC(=O)c2ccccc2Cl)s1 | 20 | /
COc1cc(/C=C2\N=C(c3c(-c4ccccc4)noc3C)OC2=O)cc(OC)c1OC | / | -0.8
CC(C)(C)c1ccc(-c2cc(NS(=O)(=O)c3ccccc3)n[nH]2)cc1 | / | 1.5
Cc1noc(C)c1COc1ccc(C(=O)OC2CCOC2=O)cc1 (stereo unspecified) | 2 | /
Cc1ccccc1NC(=O)CC(=O)Nc1ccccc1C | -22 | /
CCc1ccn2cc(-c3ccc4c(c3)OCO4)nc2c1 | 25 | /
CCn1c(-c2ccco2)nn(CN(C)CC(=O)Nc2ccc(F)c(F)c2F)c1=S | 10 | /
CCC1=Nc2cc(C(=O)NCc3ccco3)ccc2Sc2ccccc21 | 31 | /
Cc1ccc(NC(=O)CCOc2ccccc2)cc1 | -5 | /
CCc1ccc(N=C2NC(=O)CS2)cc1 | 11 | -4.2
CC(C)c1cc(C(=O)O)c2cnn(C(C)C)c2n1 | -1 | /
CC(=O)O[C@H]1C[C@@]2(C)[C@@H](C[C@@H](O)[C@H]3[C@@]4(C)CC[C@@H](O)[C@@H](C)[C@@H]4CC[C@@]32C)/C1=C(\CCC=C(C)C)C(=O)O | / | -3.2
CCCSc1ncc(Cl)c(C(=O)Nc2ccc(S(=O)(=O)Nc3nccs3)cc2)n1 | 3 | 2.8
CN(CC(=O)Nc1ccc(N2CCOCC2)cc1)Cn1nc(Nc2ccccc2F)sc1=S | -12 | /
O=C(Nc1ncc(S(=O)(=O)c2ccc([N+](=O)[O-])cc2)s1)c1cc(-c2ccccc2)nc2ccccc12 | / | 0.3
Cc1ccc(S(=O)(=O)NC(=O)NC2CCS(=O)(=O)C2)cc1 (stereo unspecified) | 13 | /
CCOC(=O)c1ccc2nc(C(F)(F)F)nc(N3CCOCC3)c2c1 | -12 | /
CCN(CC)C(=O)n1cnc2cc(C)c(C)cc21 | 10 | 0.4
CCCn1c(NC(=O)NCc2ccccc2)c2ccccc2nc1=O | 5 | /
CCOC(=O)c1ccc(N2N=C(C(F)(F)F)/C(=C/C=C/c3ccco3)C2=O)cc1 | 13 | 41
CC(C)CCNS(=O)(=O)Cc1ccccc1 | 2 | -1.6
OCc1c[nH]c(=S)n1Cc1ccccc1 | / | 5.3
Cn1c(=NC(=O)C2CCCCC2)sc2ccccc21 | 12 | /
Nc1nc(-c2ccccc2)c(-c2nc3ccccc3[nH]2)s1 | 19 | -1.2
Cc1ccc(C(=O)NCCO)cc1 | / | -1.6
N#Cc1cnn(C(=O)c2ccc(Cl)cc2)c1C1CC1 | / | -4.2
Cc1ccc(S(=O)(=O)Nc2ccccc2Oc2ccc(Cl)cc2Cl)cc1 | / | 2.4
CC1CCCCC1NC(=O)NC(=O)CSc1ccc2c(c1)OCCO2 (stereo unspecified) | 18 | /

Pulled by compound from the entries so far (2):
SMILES | S aureus helic | MgrA DNA FP
N#Cc1cnn(C(=O)c2ccc(Cl)cc2)c1C1CC1 | / | -4.2
CCN(CC)C(=O)n1cnc2cc(C)c(C)cc21 | 10 | 0.4

Back to the main list, starting 7 compounds before the break.
SMILES | S aureus helic | MgrA DNA FP
OCc1c[nH]c(=S)n1Cc1ccccc1 | / | 5.3
Cn1c(=NC(=O)C2CCCCC2)sc2ccccc21 | 12 | /
Nc1nc(-c2ccccc2)c(-c2nc3ccccc3[nH]2)s1 | 19 | -1.2
Cc1ccc(C(=O)NCCO)cc1 | / | -1.6
N#Cc1cnn(C(=O)c2ccc(Cl)cc2)c1C1CC1 | / | -4.2
Cc1ccc(S(=O)(=O)Nc2ccccc2Oc2ccc(Cl)cc2Cl)cc1 | / | 2.4
CC1CCCCC1NC(=O)NC(=O)CSc1ccc2c(c1)OCCO2 (stereo unspecified) | 18 | /
COC(=O)C1=C(NC(=O)C2CCCCC2)CCS1 | 15 | /
CCOC(=O)CSc1cc(OC)c([N+](=O)[O-])cc1OC | / | -3.4
CN(C)c1ccc(C(=O)N2CCCC2c2nnc(SCc3ccccc3)n2C)cc1 (stereo unspecified) | 13 | -1.4
CCOc1ccccc1NC(=O)COC(=O)C1CC1C (stereo unspecified) | 13 | 1.1
CCC(=O)N/N=C(\C)c1ccc(Oc2ccccc2)cc1 | / | 2.5
O=C(COc1ccccc1)Nc1c2c(nn1-c1ccc(F)cc1)CSC2 | -3 | /
CC(NCC(=O)NN)c1ccccc1 (stereo unspecified) | 22 | /
CCOC(=O)CC1OC(=O)c2cc3c(cc21)C(=O)OC3CC(=O)OCC (stereo unspecified) | 27 | /
O=C(CN1C(=O)c2cccnc2Sc2ccccc21)N1CCC2(CC1)OCCO2 | 7 | /
O=C(c1cnn(-c2ccc(C(F)(F)F)cn2)c1)c1ccccc1O | -4 | /
COc1ccc(C2C(=O)c3ccccc3C2=O)cc1OC | -25 | /
CN(C)S(=O)(=O)c1ccc(C(=O)NCc2ccccc2CN2CCOCC2)cc1 | 8 | /

Three compounds already listed, sorted by their value in S aureus helic, falling.
Molecule,S aureus helic
O=C(Nc1ccc(Br)cc1)c1cccs1,18
CCn1c(-c2ccco2)nn(CN(C)CC(=O)Nc2ccc(F)c(F)c2F)c1=S,10
O=C(Nc1nccs1)c1ccc(-c2ccc(Cl)cc2)o1,4

Next part.
SMILES | S aureus helic | MgrA DNA FP
N#Cc1nncn1-c1nc(-c2cccs2)nc2scc(-c3ccccc3)c12 | 0 | /
O=C(Cc1ccccc1)Nc1ccc(S(=O)(=O)N2CCCCC2)cc1 | 17 | /
COCC(=O)Oc1c(Sc2ccc(C)cc2)c(C)nn1-c1ccccc1 | 26 | /
Nc1ccc(S(=O)(=O)C(F)F)cc1 | -9 | /
COc1cccc(NC(=O)c2cnn(C)c2-n2cccc2)c1 | / | -1.8
COc1ccc(C2C(C#N)=C(SCC(=O)NCc3ccc4c(c3)OCO4)NC3=C2C(=O)CC(C)(C)C3)cc1 (stereo unspecified) | -5 | /
Cc1ccc(CNCC(O)COC2CCCc3ccccc32)n1C (stereo unspecified) | -1 | /
COc1ccccc1NC(=O)c1cc(Cl)nnc1Cl | 15 | -3.5
Cc1cccc(-n2nc3c(c2NC(=O)C2CC2)CSC3)c1 | 11 | /
CN(C)S(=O)(=O)c1ccc(C(=O)Nc2ncnc3sccc23)cc1 | 1 | /
COC(=O)c1sc(S(=O)(=O)Nc2cccc(C(F)(F)F)c2)c(C(=O)OC)c1C | 3 | /
CCOC(=O)c1cc(C(=O)NN)c(=O)[nH]c1C | -19 | /
CCOc1cc(C)cc2oc(=O)cc(CC)c12 | 4 | 0.9
C[C@H]1O[C@@H](O[C@H]2[C@@H](O)C[C@H](O[C@H]3[C@@H](O)C[C@H](O[C@H]4CC[C@]5(C)C6CC[C@]7(C)[C@@H](C8=CC(=O)OC8)CC[C@]7(O)C6CC[C@@H]5C4)O[C@@H]3C)O[C@@H]2C)C[C@H](O)[C@@H]1O (stereo partly specified) | / | -0.9
CCN(CC)CCc1nnc(NC(=O)c2ccccc2)s1 | 17 | -1.5
O=C(O)CCC(=O)Nc1ccccc1Cl | -20 | /
CC(C)Cn1c(=S)[nH]c2cc(C(=O)NCc3ccco3)ccc2c1=O | -13 | /
CSc1nc(N)n2nc(C(C)(C)C)cc2n1 | / | -1.0
Cc1csc(-c2coc3c(C)c(O)c(CN4CCN(CCO)CC4)cc3c2=O)n1 | 3 | /
COc1ccc(Br)cc1CNc1ccccc1 | -3 | -8.9
CCOC(=O)/C(C#N)=C/Nc1nc2ccc(C(=O)OCC)cc2s1 | / | 2.0
c1csc(-c2cn3c(n2)SCC3)c1 | -16 | /
CN(CC(=O)Nc1ccc2c(c1)OCCCO2)Cc1ccc2c(c1)OCCO2 | 3 | /
Cc1sc2nc(Nc3ccc(S(N)(=O)=O)cc3)sc(=O)c2c1C | 31 | /
Cc1cc(NC(=O)CSc2nc(C3CCCCC3)nc3sc(C)c(C)c23)no1 | 5 | 0.8
COC(=O)COc1nsnc1N1CCOCC1 | 2 | 1.1
Cn1c(=O)oc2cc(S(=O)(=O)N3CCC(C(=O)N4CCCCC4)CC3)ccc21 | 5 | /
COc1cc(CC(=O)OCC(=O)C(C)(C)C)cc(OC)c1OC | 5 | /
CCOC(=O)c1cnc2cc(C(F)(F)F)ccc2c1N(C)Cc1ccccc1 | 9 | 0.9
CCOc1ccccc1C1NC(=O)N(C)C(C)=C1C(=O)OCCOc1ccccc1 (stereo unspecified) | / | -0.9
O=C(CSc1cccc[n+]1[O-])c1cc2c3c(c1)CC(=O)N3CCC2 | 14 | /
CCCOC(=O)c1ccc(NC(=O)C(F)(F)F)cc1 | 21 | /
Cc1nn(CC(=O)N(C)C2CCCCC2)c(=S)n1C | -10 | /
C(=C\c1ccccc1)/CNCCCN1CCOCC1 | 2 | -4.4
CC(NC(=O)c1ccc(C(C)(C)C)cc1)C(N)=O (stereo unspecified) | 9 | /
Cn1c(=O)n(C)c2cc(/C=C3/NC(=O)NC3=O)ccc21 | 3 | 3.5
O=C(CN1CCN(S(=O)(=O)c2ccc(Br)s2)CC1)N1CCCc2ccccc21 | -3 | /
Cc1ccc2onc(CNC(=O)N3C(C)CCCC3C)c2c1 (stereo unspecified) | -13 | /
CCC(=O)Nc1nc2c(s1)C(=O)CC(c1ccccc1)C2 (stereo unspecified) | -31 | /
COc1ccc(NC(=O)NNc2cc(N3CCOCC3)nc(N3CCOCC3)n2)cc1 | -30 | /
CC(C)(C)c1nc(N=C(N)N)sc1Br | / | -4.4
N#Cc1c(NC(=O)CCn2cnnn2)sc2c1CCCC2 | 15 | 7.2
Cc1cc(C(C)(C)C)c(O)c(C)c1CC1=NCCN1 | / | -1.9&1.0
CCCn1c(SCc2ccccc2C#N)n[nH]c1=O | -6 | /
N#Cc1ccc(NC(=O)CSc2ncn[nH]2)cc1 | 6 | -0.4
O=C1C=CC(=O)c2c(Cl)ccc(Cl)c21 | 14 | /
CC(=O)Nc1ccc(NC(=O)Cn2cc3c(n2)CCC(C)C3)cc1 (stereo unspecified) | -10 | /
CCn1c(=O)cc(SCC(=O)NCc2cccs2)c2ccccc21 | 16 | -1.3
COC(=O)c1cc(S(=O)(=O)N2CCC(c3ccccc3)C2)c[nH]1 (stereo unspecified) | -2 | /
CC12C=CC(O1)C1C(=O)N(c3ccc(Br)cc3[N+](=O)[O-])C(=O)C12 (stereo unspecified) | / | -0.9
CCOC(=O)Cc1csc(SCc2nc3sc4c(c3c(=O)[nH]2)CCCC4)n1 | -48 | /
O=C(CN1CCOCC1)N1CCN(c2ccccc2)CC1 | 6 | -0.9
COc1ccccc1C(CC#N)c1ccco1 (stereo unspecified) | 4 | 2.8
CS(=O)(=O)c1ccc2nc(NC(=O)c3cccc(C(F)(F)F)c3)sc2c1 | -14 | /
